# Compound activity deposited in PubChem BioAssay by National Center for Advancing Translational Sciences (NCATS).
# VACV Venus inh: inhibitors of vaccinia virus (Venus reporter). Vaccinia virus Venus reporter expression, fluorescence. Potency, µM (doses to about 36.5 µM), without a hit: at the top dose activity change, negative = inhibition, most hits filed as inhibitors. 330,000 tested, 0.46% active. AID 720580; active means well fitted inhibition curve with a large enough effect; inconclusive means small, poorly fitted or top-dose-only effect; inactive means no such curve, though single readings can be large or run the other way; tested in A549 cells; note: nearly all actives have a fitted effect of over 30% in size; inactives centre near -10
# Vaccinia mCherry: inhibitors of vaccinia virus infection (mCherry reporter signal); Vaccinia virus mCherry reporter infection, fluorescence; about a quarter of the inactives have no number; Potency, µM (titrated, usually from 36.5 µM), for the others: top-dose activity change, negative = inhibition, usual class: inhibitors; 310,000 tested, 0.63% active; active = well fitted inhibition curve with a large enough effect; inconclusive = small, poorly fitted or top-dose-only effect; inactive = no such curve, though single readings can be large or run the other way; tested in A549 cells; note: nearly all actives have a fitted effect of over 35% in size; inactives centre near -10
# * = called active by the depositor; i = inactive; ? = inconclusive; · = not tested or not shown; & = joins results of further samples; [ ] = dose if it differs, or a comment. % is set by controls: 0 for no effect and ±100 for the full control effect; potency is the fitted concentration of half-maximal effect.
1) CCOC(=O)C1CCN(C(=O)CCCn2c(=O)c3cccn3c3cccnc32)CC1
2) Nc1nc(SCC(=O)Nc2cc(C(F)(F)F)ccc2N2CCOCC2)n[nH]1
3) Cc1ccc(N2CC(C(=O)NCCS(=O)(=O)N3CCN(c4ccccc4F)CC3)CC2=O)cc1 (stereo not drawn)
4) Cc1ccc(NC(=O)CC2S/C(=N/N=C3\CCCc4ccccc43)NC2=O)cc1 (stereo not drawn)
5) CC(=O)Oc1ccc(NC(=O)Cc2ccccc2)c(C(=O)O)c1
6) COc1cc(NC(=S)N2CCCC(CO)C2)cc(OC)c1 (stereo not drawn)

screen / no.,1,2,3,4,5,6
VACV Venus inh,-10%,-14%,-13%[7.34 µM],-26%,-15%,7%
Vaccinia mCherry,-12%,i,i[7.34 µM],-4%,-3%,-9%

7) O=C(c1ccc(-c2ccccc2)cc1)N1CCC2CC1c1cc(-c3ccc4c(c3)OCO4)ccc12 (stereo not drawn)
8) Cc1[nH]n(-c2ccccc2)c(=O)c1N=Nc1c(O)cc(S(=O)(=O)N(C)C)c2ccccc12
9) Cc1cc(Br)c(NC(=O)CN2C(=O)NC3(CCOc4ccccc43)C2=O)c(Br)c1 (stereo not drawn)
10) CCCCCC(O)(CCN1CCCCC1)c1ccc(OCC)cc1 (stereo not drawn)
11) CCOC(=O)c1ccc(N2C(=O)C3C(C2=O)C(C(=O)c2ccc(Cl)cc2)N2CCCC32)cc1 (stereo not drawn)
12) COc1ccc(/C=C/c2cnc3ccccc3n2)cc1OC

screen / no.,7,8,9,10,11,12
VACV Venus inh,-3%,?,-19%,-9%,-5%,-10%
Vaccinia mCherry,6%,?,?,-22%,-17%,-22%

13) Cc1c(C(=O)NCCSCc2c(F)cccc2Cl)cnn1-c1ccc(Cl)cc1
14) CCOc1ccc(Br)cc1S(=O)(=O)NC1CCCC1
15) CCN1C(=O)[C@H]2[C@@H](c3ccc(-c4ccc(C(C)=O)cc4)cc3)N3CCC[C@@]3(C(=O)OC)[C@H]2C1=O
16) CCCCCn1c(=O)c(C(=O)Nc2ncccc2C)c(O)c2ccccc21
17) O=C(Nc1nnc(-c2ccncc2)o1)c1ccc2ccccc2c1
18) Cc1[nH]c(=O)[nH]c(=O)c1S(=O)(=O)N1CCN(c2cccc(Cl)c2)CC1

screen / no.,13,14,15,16,17,18
VACV Venus inh,-14%,-5%,-18%,-8%,-7%,-1%&-6%
Vaccinia mCherry,i,-18%,-14%,i,-25%,-13%&-2%

19) CC(C)CCNC(=O)C(NS(=O)(=O)c1ccc2c(c1)c(=O)n(C)c(=O)n2C)c1ccccc1 (stereo not drawn)
20) COc1ccccc1NC(=O)CSC1=Nc2ccccc2C2=NC(CC(=O)NCc3cccs3)C(=O)N12 (stereo not drawn)
21) CC1=C(C(=O)N(C)C)CC(CC(=O)NCCN2CCOCC2)C(=O)N1Cc1ccccc1 (stereo not drawn)
22) N#Cc1c(C(F)(F)F)cc(-c2cccc(Cl)c2)[nH]c1=O
23) NS(=O)(=O)c1ccc(-n2nncc2-c2ccco2)cc1
24) CC(=O)c1ccccc1OCCCN1CCCCC1

screen / no.,19,20,21,22,23,24
VACV Venus inh,-8%,-8%,2%,?,5%,2%
Vaccinia mCherry,i,-21%,-15%,-6%,-8%,·

# Single records (already shown).
# Listed for Cc1c(C(=O)NCCSCc2c(F)cccc2Cl)cnn1-c1ccc(Cl)cc1 → VACV Venus inh: -14%; Vaccinia mCherry: i
# Listed for CCOc1ccc(Br)cc1S(=O)(=O)NC1CCCC1 → VACV Venus inh: -5%; Vaccinia mCherry: -18%

# Other results
25) COc1ccc(OC)c(NC(=O)CSc2nnc3ccc(-c4ccccn4)nn23)c1
26) C/C(=N/NC(=O)Cc1cccc2ccccc12)c1cccs1
27) OC(COc1ccc(Br)cc1)Cn1ccnc1 (stereo not drawn)
28) COC(=O)c1ccccc1NC(=S)N(Cc1ccc2c(c1)OCO2)Cc1cc2cc(C)ccc2[nH]c1=O
29) CN(C)c1nnnn1-c1ccc(Oc2ccccc2)cc1
30) COC(=O)C(C)Oc1ccc2c(c1)O/C(=C\c1ccco1)C2=O (stereo not drawn)

screen / no.,25,26,27,28,29,30
VACV Venus inh,-18%,?,-3%,-12%,1%,-3%
Vaccinia mCherry,0%,-25%,-8%,-21%,-6%,i

31) CCOC(=O)[C@]12CCCC=C1N(CCC1=CCCCC1)C(=O)[C@H](CC(=O)N1CCCCC1)C2
32) COc1ccc(CN2C(=O)[C@@H]3C(c4ccc(F)cc4)=NO[C@@H]3C2=O)cc1
33) COc1ccccc1N1CCN(S(=O)(=O)c2c(C)[nH]c(=O)[nH]c2=O)CC1
34) CC1(C)CC(NCc2ccccc2)=CC(=S)N1
35) NC(N)=NC(=O)c1nc(Cl)c(N2CCCCCC2)nc1N
36) Cc1ccc(C)c(NC(=O)C2CCN(c3nn4c(=O)cc(C)nc4s3)CC2)c1

screen / no.,31,32,33,34,35,36
VACV Venus inh,-21%,-16%,-8%,-9%,?,0%
Vaccinia mCherry,-14%,-13%,i,-10%,-20%&-19%&-26%,-4%

37) CC(C)CN(CC(C)C)S(=O)(=O)c1cc([N+](=O)[O-])ccc1N1CCCCCC1
38) CCOC(=O)N1CCN(C(=O)c2ccc3nc(C)sc3c2)CC1
39) COc1ccc(C2C(C(=O)N3CCOCC3)CCC(=O)N2c2ccc(OC)cc2)cc1 (stereo not drawn)
40) CC1CCCCC1NS(=O)(=O)CCNC(=O)c1ccc2c(c1)OCO2 (stereo not drawn)
41) CCSc1nc2c([nH]c3ccccc32)c(=O)n1C
42) CCOc1ccccc1NC(=O)c1ccc(CN2CCc3ccccc3C2)cc1

screen / no.,37,38,39,40,41,42
VACV Venus inh,-12%,-7%,-13%,-6%,-8%,-11%
Vaccinia mCherry,i,-13%,-22%,i,-30%,i

43) Nc1c(Br)cc(Br)c2c1C(=O)c1c(cccc1S(=O)(=O)O)C2=O
44) CCN(CC)S(=O)(=O)c1cc(NC(=O)COC(=O)CCC(=O)c2ccc(F)cc2)ccc1C
45) O=C(c1cccs1)N1CCn2c1nc1ccccc12
46) O=C(COC(=O)c1ccc(S(=O)(=O)NCc2ccco2)cc1)Nc1ncc(Cl)cc1Cl
47) CCCC(=O)Nc1cc(=O)n(C)c(=O)n1C
48) O=C(NCc1ccccc1)N1CCn2c(nc3ccccc32)C1

screen / no.,43,44,45,46,47,48
VACV Venus inh,17%,-9%,-19%,3%,-13%,-8%
Vaccinia mCherry,-14%,i,·,-16%,-13%,-8%

49. Cc1oc(-c2ccccc2F)nc1CSCC(=O)NCc1ccccc1
  VACV Venus inh: -7%
  Vaccinia mCherry: -7%
50. C[n+]1c(/C=C/c2ccc(O)cc2)ccc2ccccc21
  VACV Venus inh: 5%
  Vaccinia mCherry: i
51. Fc1ccccc1Cc1noc(CN(Cc2ccccn2)CC2CCCO2)n1 (stereo not drawn)
  VACV Venus inh: 2%
  Vaccinia mCherry: -5%
52. O=C(NCCO)C(F)(F)C(F)(F)C(F)(F)OC(F)(C(=O)NCCO)C(F)(F)F (stereo not drawn)
  VACV Venus inh: -7%
  Vaccinia mCherry: -14%
53. COc1ccc(-c2nnn(CC(=O)N3CCN(c4ccccc4OC)CC3)n2)cc1OC
  VACV Venus inh: -2%
  Vaccinia mCherry: 4%
54. C=CCc1cc(/C=C2/NC(=O)N(CC)C2=O)cc(OCC)c1OCc1ccc(C(=O)O)cc1
  VACV Venus inh: -22%
  Vaccinia mCherry: -8%
55. Cc1ccc(NCN2C(=O)C(=O)c3ccccc32)nc1
  VACV Venus inh: -11%
  Vaccinia mCherry: -1%
56. O=C1O/C(=C\c2ccc(O)cc2)C(O)=C1c1ccc(O)cc1
  VACV Venus inh: -17%
  Vaccinia mCherry: -6%
57. COc1cccc(N=c2oc3ccccc3cc2-c2nc3ccccc3[nH]2)c1
  VACV Venus inh: -11%
  Vaccinia mCherry: -19%
58. C/C(=N\OCC(=O)OCC(=O)NC(=O)c1ccc(OC(F)F)cc1)c1ccc2c(c1)OCO2
  VACV Venus inh: -6%
  Vaccinia mCherry: -14%
59. CC(OC(=O)c1ccc2c(=O)n3c(nc2c1)CCC3)C(=O)NC1CCCCC1C (stereo not drawn)
  VACV Venus inh: -17%
  Vaccinia mCherry: i
60. COc1cc(C2CC(=O)c3cnc(NC(C)=O)nc3C2)cc(OC)c1OC (stereo not drawn)
  VACV Venus inh: -11%
  Vaccinia mCherry: ·
61. Cc1cc(/C=C(\C#N)C(=O)NC2CC2)c(C)[nH]1
  VACV Venus inh: -14%
  Vaccinia mCherry: -17%
62. COc1cc(OC)c(NC(=O)CCNS(=O)(=O)c2ccc3c(c2)CC(C)N3C(C)=O)cc1Cl (stereo not drawn)
  VACV Venus inh: 13%[7.34 µM]
  Vaccinia mCherry: 1%[7.34 µM]
63. CSc1nnnc2ccccc12
  VACV Venus inh: -2%
  Vaccinia mCherry: -12%

# Reformatted tab-delimited: 3 of the compounds above
no.	SMILES	VACV Venus inh	Vaccinia mCherry
53	COc1ccc(-c2nnn(CC(=O)N3CCN(c4ccccc4OC)CC3)n2)cc1OC	-2%	4%
54	C=CCc1cc(/C=C2/NC(=O)N(CC)C2=O)cc(OCC)c1OCc1ccc(C(=O)O)cc1	-22%	-8%
55	Cc1ccc(NCN2C(=O)C(=O)c3ccccc32)nc1	-11%	-1%

# (more compounds)
64. CCc1nnc(NC(=O)[C@@H](NC(=O)c2cccc(C)c2)C(C)C)s1
  VACV Venus inh: -7%
  Vaccinia mCherry: -15%
65. Cc1ccc(S(=O)(=O)Nc2ccc3c(c2)nc(CN2CCCC2)n3C)cc1
  VACV Venus inh: -4%
  Vaccinia mCherry: ·
66. CC(C)c1ccc(NS(=O)(=O)c2cn(C)c(=O)n(C)c2=O)cc1
  VACV Venus inh: -4%
  Vaccinia mCherry: -23%
67. COc1ccc(NC(=O)CN2C(=O)C3(SCC(=O)N3c3ccccc3)c3ccccc32)cc1Cl (stereo not drawn)
  VACV Venus inh: -11%
  Vaccinia mCherry: -21%
68. CCN(CC)S(=O)(=O)c1ccc(N2CCOCC2)c(NC(=O)c2ccc(=O)[nH]c2)c1
  VACV Venus inh: 0%
  Vaccinia mCherry: i
69. COc1ccccc1NC(=O)COc1ccc(CO)cc1Cl
  VACV Venus inh: -2%
  Vaccinia mCherry: ·
70. CCOC(=O)CSC1=C(C#N)C(c2ccc(Cl)cc2)C(C(=O)OC)C(=O)N1 (stereo not drawn)
  VACV Venus inh: -14%
  Vaccinia mCherry: -22%
71. CN(C(=O)NC(=O)C1=C(N2CCOCC2)/C(=C/c2ccccc2)CC1)S(C)(=O)=O
  VACV Venus inh: -5%
  Vaccinia mCherry: -18%
72. Cc1oc(-c2ccc(C(=O)NCc3cccc(F)c3)cc2)nc1COc1ccccc1
  VACV Venus inh: -1%
  Vaccinia mCherry: -8%
73. COC(=O)c1cc2nc(-c3ccc(OC)cc3)cc(C(F)(F)F)n2n1
  VACV Venus inh: -5%
  Vaccinia mCherry: ·
74. CC(C)NCC(O)COCCOc1ccc(C(C)(C)C)cc1 (stereo not drawn)
  VACV Venus inh: -16%
  Vaccinia mCherry: -24%
75. CCCCOc1ccc(/C(O)=C(\C#N)c2nc3ccccc3[nH]2)cc1
  VACV Venus inh: 9%
  Vaccinia mCherry: ?
76. CCC(CC)C(=O)Nc1nc(-c2ccc3c(c2)CCN3C(=O)C2CC2)c(C)s1
  VACV Venus inh: -21%
  Vaccinia mCherry: ·
77. COC(=O)C1=Nc2ccccc2/C1=C\c1c(O)n(-c2ccc(Br)cc2)c(=O)[nH]c1=O
  VACV Venus inh: -4%
  Vaccinia mCherry: -10%
78. COc1ccc(CCN2CCCn3c2nc2c3c(=O)n(CC(N)=O)c(=O)n2C)cc1OC
  VACV Venus inh: -3%
  Vaccinia mCherry: -13%

# Records 64 to 66 of the list above:
64. CCc1nnc(NC(=O)[C@@H](NC(=O)c2cccc(C)c2)C(C)C)s1
  VACV Venus inh: -7%
  Vaccinia mCherry: -15%
65. Cc1ccc(S(=O)(=O)Nc2ccc3c(c2)nc(CN2CCCC2)n3C)cc1
  VACV Venus inh: -4%
  Vaccinia mCherry: ·
66. CC(C)c1ccc(NS(=O)(=O)c2cn(C)c(=O)n(C)c2=O)cc1
  VACV Venus inh: -4%
  Vaccinia mCherry: -23%

# Other entries
79. Cc1ccc(S(=O)(=O)NCc2ccccc2)cc1C(=O)NCC(=O)Nc1c(C)cccc1C
  VACV Venus inh: -12%
  Vaccinia mCherry: -7%
80. COC(=O)c1ccc(C(=O)N2CCc3c(C(=O)NC(C)c4ccco4)c(OC)cc(=O)n3CC2)cc1 (stereo not drawn)
  VACV Venus inh: 0%
  Vaccinia mCherry: -12%
81. O=C(Nc1ccc(Br)cc1)Nc1ccccc1Cl
  VACV Venus inh: ?
  Vaccinia mCherry: i
82. CC(=O)c1ccc(NC(=S)N2CCC(Cc3ccccc3)CC2)cc1
  VACV Venus inh: -15%
  Vaccinia mCherry: i
83. CC1CCCCN1C(=O)CSc1nnc(-c2ccccc2F)o1 (stereo not drawn)
  VACV Venus inh: 0%
  Vaccinia mCherry: -2%
84. O=c1[nH]c(=S)c2[nH]cnc2[nH]1
  VACV Venus inh: -3%
  Vaccinia mCherry: 38%[activator]
85. O=C(COc1ccc(Cl)cc1)Nc1cccc(-c2ccc(N3CCOCC3)nn2)c1
  VACV Venus inh: -8%
  Vaccinia mCherry: -27%
86. O=c1c2cc([N+](=O)[O-])ccc2sn1-c1ccccc1
  VACV Venus inh: -18%
  Vaccinia mCherry: -6%
